YB-1 expr inh: inhibitors of YB-1 gene expression, primary screen, cell-based, fluorescence; delta delta Cp (YB-1 minus CDIP) (no concentration beside the values); 30,000 tested, 0.37% active; U2OS, qRT-PCR YB-1 vs CDIP delta delta Cp, 16 h; active compounds read high; zero = DMSO, each unit about twofold; AID 434959, 2010;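 active = delta delta Cp rounded down to an integer at or above 3, about 3 SD of DMSO wells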;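 also: higher means less YB-1 transcript or more CDIP transcript relative to DMSO; stock transfer was 100 nL into about 100 µL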
Hedgehog inh: Hedgehog pathway signaling inhibitors, primary screen, luminescence, Shh-LIGHT2 cells, Gli-luciferase; Shh-LIGHT2 Gli-luciferase reporter, 30 h; inhibition, % (test concentration not listed); 22,000 tested, 2.1% active;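 active = replicate mean of 65% or more; inconclusive = mean lower but half the replicates past it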;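 also: pathway switched on by Shh-conditioned medium diluted 1 in 25 in low serum; 100 nL library stock added to about 40 µL; 0% = median of neutral wells and 100% = positive control level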
PD-1 reverse act: activators reversing PD-1 mediated T-cell inhibition, primary screen, luminescence, primary human CD4 T cells, PD-L1 beads. activation, % (concentration not given with the values). 29,000 tested, under 10 active. CellTiter-Glo 96 h;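 active = replicate mean of 50% or more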;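 also: 0% = median vehicle wells and 100% = positive control; 100 nL library stock added to about 50 µL; numbers are from one replicate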
MITF inhib: inhibitors of MITF, primary screen, MITF inhibitor project, cell-based, luminescence | TRPM1 promoter luciferase, 24 h | inhibition, % (concentration not given with the values) | 37,000 tested, 0.28% active | AID 2240, 2010;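 active = most replicates at 85% or more, or half of them and the mean; inconclusive = half reach 85% but not the mean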;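 also: human melanocyte line stably carrying TRPM1 promoter luciferase reporter; 0% = vehicle wells and 100% = a positive control; the first replicate is given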
Numbers without * were called inactive; u = inconclusive; x = not tested or not shown. A portion of the library (hit frequency here may not be typical).

SMILES	YB-1 expr inh	Hedgehog inh	PD-1 reverse act	MITF inhib
C[C@@H]1CN([C@H](C)CO)C(=O)c2cccc(NC(=O)Nc3ccc(C(F)(F)F)cc3)c2O[C@H]1CN(C)C(=O)Nc1ccc2c(c1)OCO2	0.00445	-0.6	-6.1	39.9
CC(Oc1ccc(Br)cc1)C(=O)NCc1ccccn1 (stereo not given)	x	x	-3.0	15.9
CNC[C@@H]1Oc2ccc(NC(=O)Cn3cnnn3)cc2C(=O)N([C@@H](C)CO)C[C@H]1C	0.157	x	0.1	2.4
Cc1noc(C)c1S(=O)(=O)Nc1ccc2c(c1)C(=O)N([C@H](C)CO)C[C@H](C)[C@@H](CN(C)Cc1ccccc1)O2	-0.267	7.1	-1.3	-4.2
Cc1ccc(-c2cc(C(=O)NCc3ccccn3)no2)cc1	x	x	1.0	-58.8
C[C@@H]1CCCCO[C@@H](CN(C)C(=O)Cc2ccccc2)[C@@H](C)CN([C@H](C)CO)C(=O)c2cc(NS(=O)(=O)c3ccccc3)ccc2O1	-0.383	-2.4	x	-2.7
CC(=O)c1cccc(NS(=O)(=O)c2cccc(S(=O)(=O)c3ccccc3)c2)c1	x	x	-0.4	36.7
COc1ccc(NC(=O)N(C)C[C@H]2Oc3ccc(NS(=O)(=O)c4ccc(Cl)cc4)cc3CC(=O)N([C@@H](C)CO)C[C@@H]2C)cc1	0.127	6.4	x	0.2
Cc1ccc(S(=O)(=O)N(CCO)c2cc3c(s2)CCCC3)cc1	-0.0385	-0.7	-1.0	15.4
COc1ccc(S(=O)(=O)Nc2ccc3c(c2)CC(=O)N([C@H](C)CO)C[C@@H](C)[C@@H](CN(C)Cc2ccc(C(=O)O)cc2)O3)cc1	-0.426	x	0.8	5.0
CCc1ccc(Nc2nc3ccccc3nc2NS(=O)(=O)c2ccc(NC(C)=O)cc2)cc1	x	x	0.7	-43.2
C[C@@H]1CN([C@@H](C)CO)C(=O)Cc2cc(NS(=O)(=O)c3cn(C)cn3)ccc2O[C@@H]1CN(C)Cc1ccc(Cl)c(Cl)c1	0.279	4.6	x	-16.9
C[C@H](CO)N1C[C@H](C)[C@@H](CN(C)Cc2ccc(Oc3ccccc3)cc2)Oc2ccc(NC(=O)CCCCCC(=O)Nc3ccccc3N)cc2C1=O	0.219	x	-0.2	16.3
Cc1ccc(S(=O)(=O)Nc2cccc3c2O[C@H](CN(C)Cc2ccc(-c4ccccc4)cc2)[C@@H](C)CN([C@H](C)CO)C3=O)cc1	-0.0355	12.8	0.3	43.6
C[C@H]1CN([C@@H](C)CO)C(=O)Cc2cc(NS(C)(=O)=O)ccc2O[C@@H]1CN(C)C(=O)Nc1cccc2ccccc12	-0.0227	x	0.5	14.4
COc1ccc(S(=O)(=O)Nc2ccc3c(c2)CC(=O)N([C@@H](C)CO)C[C@@H](C)[C@@H](CN(C)C(=O)Nc2c(C)noc2C)O3)cc1	0.216	-9.8	2.8	-6.5
C[C@@H]1O[C@@H](O[C@H]2[C@@H]3C=CO[C@@H](O[C@@H]4O[C@H](CO)[C@@H](O)[C@H](O)[C@H]4O)[C@@H]3[C@@]3(CO)O[C@@H]23)[C@H](O)[C@H](O)[C@H]1OC(=O)/C=C/c1ccccc1	0.359	-3.0	x	x
COc1ccc(NC(=O)Nc2cccc3c2O[C@@H](CN(C)C(=O)NC2CCCCC2)[C@@H](C)CN([C@@H](C)CO)C3=O)cc1	-0.249	-27.5	0.0	-5.5
O=C(COc1ccc(C(=O)Nc2cccc(C(F)(F)F)c2)cc1)Nc1ccccc1	x	x	-0.7	-6.1
C[C@@H]1CN([C@H](C)CO)C(=O)c2cc(NS(C)(=O)=O)ccc2O[C@@H]1CN(C)C(=O)NC1CCCCC1	0.172	-2.8	1.1	0.9
COc1cc(/C=C/C(=O)OCC[N+](C)(C)C)cc(OC)c1O	0.0373	-20.9	-1.6	-6.6
C[C@H]1CN([C@@H](C)CO)C(=O)c2cc(NC(=O)Nc3ccc(F)cc3)ccc2O[C@H]1CN(C)C(=O)Nc1ccc(F)cc1	-0.00237	-26.2	0.6	-13.3
C[C@@H]1CN([C@@H](C)CO)C(=O)Cc2cc(NC(=O)C3CC3)ccc2O[C@@H]1CN(C)C(=O)NC1CCCCC1	0.0241	-61.9	1.1	-2.3
CNC[C@H]1Oc2ccc(NC(=O)NC3CCCCC3)cc2C(=O)N([C@@H](C)CO)C[C@@H]1C	-0.293	-21.0	0.3	2.5
Cc1noc(C)c1NC(=O)N(C)C[C@@H]1Oc2ccc(NC(=O)C3CC3)cc2CC(=O)N([C@@H](C)CO)C[C@@H]1C	0.0665	u	2.7	-12.7
C[C@@H]1CN([C@@H](C)CO)C(=O)Cc2cc(NC(=O)Nc3ccc(F)cc3)ccc2O[C@@H]1CN(C)Cc1ccc(Oc2ccccc2)cc1	-0.131	-4.3	x	18.7
C=CCC1C(=O)N(S(=O)(=O)c2ccc(Cl)cc2)N=C1CCC (stereo not given)	0.0643	u	-4.8	5.2
C[C@@H]1CN([C@H](C)CO)C(=O)c2cccc(NS(=O)(=O)c3ccc(Cl)cc3)c2O[C@H]1CN(C)S(=O)(=O)c1cccs1	-0.587	-13.0	-3.8	-0.5
COC(=O)C1=C(C)NC2=C(C(=O)c3ccccc32)C1c1cc(Cl)c(OCc2ccc([N+](=O)[O-])cc2)c(OC)c1 (stereo not given)	x	x	2.1	44.2
CCn1c2ccccc2n2c(SCC(=O)Nc3ccc(C)cc3)nnc12	x	x	2.2	-22.9
C[C@H]1CN([C@@H](C)CO)C(=O)c2cc(NC(=O)CCCN(C)C)ccc2O[C@@H]1CN(C)S(=O)(=O)c1ccccc1	0.436	-10.1	2.3	9.2
Cc1ccc(S(=O)(=O)N(C)C[C@@H]2Oc3c(NC(=O)CCCCCC(=O)Nc4ccccc4N)cccc3C(=O)N([C@H](C)CO)C[C@@H]2C)cc1	-0.928	x	-0.4	30.3
C[C@H]1CN([C@@H](C)CO)C(=O)Cc2cc(NC(=O)C3CCCCC3)ccc2O[C@@H]1CN(C)C(=O)NC1CCCCC1	0.206	-23.8	0.8	-16.2
Cc1cc(Cl)ccc1OCC(=O)Nc1cc(Cl)ccc1C(=O)O	x	x	1.9	-12.8
COC(=O)c1ccccc1NC(=O)CSc1ncnc2sc3c(c12)CCC(C)C3 (stereo not given)	x	x	1.2	-26.7
C/C1=C/CCC2=CC(OC2=O)C(C)(C)/C=C/C1=O (stereo not given)	-0.22	-42.7	-9.3	74.1
Cc1ccc2ccc(C(Nc3ccccn3)c3ccccc3Cl)c(O)c2n1 (stereo not given)	x	x	-11.3	53.9
CSc1nc2sc3c(c2c2nnc(SCC(=O)Nc4ccccc4)n12)CCC3	x	x	-3.6	80.0
O=C(CCN1C(=O)c2ccccc2S1(=O)=O)Nc1ccc(F)cc1F	x	x	1.6	-15.3
CCN1CCN(C(=O)c2ccccc2N(Cc2ccccc2)S(C)(=O)=O)CC1	x	x	1.2	4.4
O=C(O)CCC/C=C\C[C@@H]1[C@@H](/C=C/[C@@H](O)COc2cccc(Cl)c2)[C@H](O)C[C@@H]1O	0.326	-26.5	2.4	-8.6
CC(=O)CCc1ccc(Oc2ccc(C(F)(F)F)cn2)cc1	x	x	0.0	-68.2
Cc1ccc(-n2c(SCC(=O)OC(C)C)nnc2-c2ccncc2)cc1	x	x	1.0	-24.9
N#Cc1cc2[nH]c(=O)c(=O)[nH]c2cc1[N+](=O)[O-]	0.0241	-21.6	4.3	5.8
C[C@@H]1CN([C@@H](C)CO)C(=O)Cc2cc(NC(=O)Nc3ccc4c(c3)OCO4)ccc2O[C@@H]1CN(C)C(=O)NC1CCCCC1	-0.196	2.1	x	-14.6
O=C(CSc1nnc(-c2ccccc2F)n1-c1ccccc1)Nc1ccc2cn[nH]c2c1	x	x	0.6	13.5
C[C@@H]1CN([C@@H](C)CO)C(=O)c2cc(NS(=O)(=O)c3cccs3)ccc2O[C@H]1CN(C)Cc1ccncc1	0.111	x	0.5	4.7
C[C@@H]1O[C@@H](O[C@H]2[C@H](O[C@H]3[C@H](O[C@H]4CC[C@@]5(C)C(CC[C@]6(C)C5CC=C5[C@@H]7CC(C)(C)C[C@@H](O)[C@]7(C)CC[C@]56C)[C@@]4(C)CO)O[C@H](C(=O)O)[C@@H](O)[C@@H]3O)OC[C@H](O)[C@@H]2O)[C@H](O)[C@H](O)[C@H]1O (stereo not given in full)	1.55	22.9	-0.3	-7.4
O=C(O)CCC(=O)Nc1ccc(-c2nc3ccc(C(=O)c4ccccc4)cc3[nH]2)cc1	x	x	3.1	-56.2
COc1ccc(N(CC(=O)Nc2c(F)cccc2F)S(C)(=O)=O)cc1Cl	x	x	1.7	-13.7
Cc1noc(C)c1S(=O)(=O)N(C)C[C@H]1Oc2c(NC(=O)c3ccc(-c4nccs4)cc3)cccc2C(=O)N([C@H](C)CO)C[C@H]1C	-0.266	27.1	1.1	-14.2
CNC[C@@H]1Oc2c(NC(=O)Nc3ccc(C(F)(F)F)cc3)cccc2C(=O)N([C@H](C)CO)C[C@@H]1C	0.27	52.5	0.6	2.0
CC1(C)N=C(NS(=O)(=O)c2cc(C(F)(F)F)cc(C(F)(F)F)c2)N(c2ccccc2)O1	0.167	100.8*	-1.3	49.2
C[C@@H]1CN([C@H](C)CO)C(=O)c2cc(NC(=O)Nc3ccc4c(c3)OCO4)ccc2O[C@@H]1CN(C)C	0.101	x	1.3	-0.2
CN(C)c1nc(N)nc(CSc2ncc(Cl)cc2Cl)n1	x	x	-1.1	-42.3
C[C@@H]1CN([C@H](C)CO)C(=O)c2cc(NS(=O)(=O)c3ccccc3)ccc2O[C@@H]1CN(C)C(=O)Nc1cccc2ccccc12	0.173	x	-0.4	-8.0
C[C@H]1CN([C@@H](C)CO)C(=O)c2cccc(NC(=O)Nc3ccccc3)c2O[C@H]1CN(C)C(=O)Nc1cccc2ccccc12	0.0743	-7.6	0.3	23.6
CC1(C)CC(=O)c2cnc(NC(=O)CSc3nc4ccccc4o3)nc2C1	x	x	-0.2	-10.7
CC(C)NC(=O)N(C)C[C@@H]1Oc2c(NC(=O)Nc3cccc4ccccc34)cccc2C(=O)N([C@H](C)CO)C[C@H]1C	-0.125	3.1	0.4	7.0
C[C@@H]1CN([C@H](C)CO)C(=O)Cc2cc(NS(=O)(=O)c3ccccc3)ccc2O[C@H]1CN(C)CC1CCCCC1	0.173	-1.7	-1.2	-2.9

A second format for four compounds above.
The line under a structure holds: YB-1 expr inh	Hedgehog inh	PD-1 reverse act	MITF inhib
CNC[C@@H]1Oc2c(NC(=O)Nc3ccc(C(F)(F)F)cc3)cccc2C(=O)N([C@H](C)CO)C[C@@H]1C
    0.27	52.5	0.6	2.0
CC1(C)N=C(NS(=O)(=O)c2cc(C(F)(F)F)cc(C(F)(F)F)c2)N(c2ccccc2)O1
    0.167	100.8*	-1.3	49.2
C[C@@H]1CN([C@H](C)CO)C(=O)c2cc(NC(=O)Nc3ccc4c(c3)OCO4)ccc2O[C@@H]1CN(C)C
    0.101	x	1.3	-0.2
CN(C)c1nc(N)nc(CSc2ncc(Cl)cc2Cl)n1
    x	x	-1.1	-42.3

The results go on:
SMILES	YB-1 expr inh	Hedgehog inh	PD-1 reverse act	MITF inhib
C[C@H](CO)N1C[C@H](C)[C@H](CN(C)S(=O)(=O)c2cccs2)Oc2ccc(NC(=O)Nc3ccccc3)cc2CC1=O	0.0985	5.9	2.1	-5.2
COc1ccc(Cn2c(-c3nonc3NC(C)=O)nc3ccccc32)cc1	x	x	-0.7	13.1
C[n+]1cc(-c2ccc3ccccc3n2)cc2ccccc21	-0.373	x	1.3	0.3
CC(=O)Nc1ccc(NC(=O)COc2ccccc2C(=O)Nc2cccc(Cl)c2Cl)cc1	x	x	0.6	23.7
C[C@@H]1CN([C@H](C)CO)C(=O)c2cccc(NC(=O)Nc3ccc(C(F)(F)F)cc3)c2O[C@@H]1CN(C)C	0.146	-82.9	2.3	6.3
C[C@H](CO)N1C[C@H](C)[C@@H](CN(C)S(=O)(=O)c2ccccc2)Oc2ccc(NC(=O)Nc3ccc(F)cc3)cc2C1=O	-0.919	x	-1.5	-25.2
C[C@H]1CN([C@@H](C)CO)C(=O)c2cccc(NC(=O)c3ccc(-c4nccs4)cc3)c2O[C@@H]1CN(C)Cc1ccc(C(=O)O)cc1	0.251	9.4	0.8	-2.5
C[C@H]1CN([C@@H](C)CO)C(=O)Cc2cc(NS(=O)(=O)c3cccs3)ccc2O[C@H]1CN(C)Cc1ccc2c(c1)OCO2	0.0616	u	x	-27.9

Pulled one by one from the entries so far (three):
SMILES	YB-1 expr inh	Hedgehog inh	PD-1 reverse act	MITF inhib
C[C@H]1CN([C@@H](C)CO)C(=O)Cc2cc(NS(C)(=O)=O)ccc2O[C@@H]1CN(C)C(=O)Nc1cccc2ccccc12	-0.0227	x	0.5	14.4
C[C@@H]1O[C@@H](O[C@H]2[C@H](O[C@H]3[C@H](O[C@H]4CC[C@@]5(C)C(CC[C@]6(C)C5CC=C5[C@@H]7CC(C)(C)C[C@@H](O)[C@]7(C)CC[C@]56C)[C@@]4(C)CO)O[C@H](C(=O)O)[C@@H](O)[C@@H]3O)OC[C@H](O)[C@@H]2O)[C@H](O)[C@H](O)[C@H]1O (stereo not given in full)	1.55	22.9	-0.3	-7.4
O=C(O)CCC(=O)Nc1ccc(-c2nc3ccc(C(=O)c4ccccc4)cc3[nH]2)cc1	x	x	3.1	-56.2
